Screening data: PubChem, several laboratories
Calb FLC: C. albicans growth inhibition with fluconazole, primary screen, CaCi-2 strain, Alamar Blue fluorescence; C. albicans CaCi-2 (fluconazole-resistant clinical isolate) + fluconazole, 48 h; growth inhibition, % (concentration not given with the values); 0.57% of 300,000 active; AID 1979, 2009;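 active = most replicates above 75%; inconclusive = exactly half above 75%; inactive = most below 75%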;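 note: all wells also contain fluconazole at 8 µg/ml as a sub-toxic cotreatment; 0% = median of DMSO wells and 100% = median of geldanamycin control wells; wells of about 8 µL received 7.5 nL stock; the first replicate is given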
HNF4A DNA FP: change in binding of human HNF4A to DNA, primary screen, biochemical, fluorescence polarization, FITC-DNA; 1 h; Hepatocyte nuclear factor 4-alpha (Homo sapiens), P41235; 0.3% of 360,000 active; activity change, % at 10 µM; in the data active = activity change above about 30%, passing the limit was not always enough;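 note: controls were the assay level and a saturating level of protein; the project sought stronger binding though the title names inhibitors; some compounds called inactive have numbers as strong as hits; positive values seem to mean higher polarization but the record does not say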
B2AR ag: beta2AR agonists driving receptor internalization, primary screen, cell-based, FAP fluorogen, flow cytometry. AID 504454, 2011. Am2.2-beta2AR cells; reference of the scale not given here. Beta-2 adrenergic receptor (Homo sapiens), P07550. response, % (test concentration not listed). 0.43% of 340,000 active;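 active = response above a set limit, near 3 SD of response in nonfluorescent compounds, cut at about 42% in these data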;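 note: stock transfer was 100 nL into about 11 µL; a reference agonist was the positive control; negative values mostly stem from fluorescent compounds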
RanGTP-Impb inh: inhibitors of RanGTP-importin-beta interaction, primary screen, biochemical, FRET, CFP-Ran, YFP-importin-beta, homogeneous | cell-free CFP-Ran/YFP-importin-beta FRET ratio | 1.1% of 300,000 active | inhibition, % (concentration not given with the values) | AID 2216, 2009;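 active = most replicates above 15%; inconclusive = exactly half above 15%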;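 note: 0% = DMSO wells and 100% = Ran loaded with GDP instead of GTP; wells of about 40 µL received 100 nL stock; the first replicate is given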
LANA-H2A inh: blockers of LANA interaction with H2A/H2B – biochemical, FP readout, HTS, primary screen. Protein LANA1 (Human herpesvirus 8 type P (isolate GK18)), Q9QR71. 0.6% of 320,000 active. cell-free LANA-H2A/H2B peptide, fluorescence polarization. inhibition, % (no concentration beside the values); in the data active = inhibition mostly above about 10%, no sharp cut-off; inactive = mostly below about 6.7%;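 note: stock transfer was 7.5 nL into about 10 µL; 0% = median of vehicle wells and 100% = median of positive control wells; one replicate is shown; the record names a cut of 25% in any replicate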
Target sequence (Q9QR71 whole entry, looked up): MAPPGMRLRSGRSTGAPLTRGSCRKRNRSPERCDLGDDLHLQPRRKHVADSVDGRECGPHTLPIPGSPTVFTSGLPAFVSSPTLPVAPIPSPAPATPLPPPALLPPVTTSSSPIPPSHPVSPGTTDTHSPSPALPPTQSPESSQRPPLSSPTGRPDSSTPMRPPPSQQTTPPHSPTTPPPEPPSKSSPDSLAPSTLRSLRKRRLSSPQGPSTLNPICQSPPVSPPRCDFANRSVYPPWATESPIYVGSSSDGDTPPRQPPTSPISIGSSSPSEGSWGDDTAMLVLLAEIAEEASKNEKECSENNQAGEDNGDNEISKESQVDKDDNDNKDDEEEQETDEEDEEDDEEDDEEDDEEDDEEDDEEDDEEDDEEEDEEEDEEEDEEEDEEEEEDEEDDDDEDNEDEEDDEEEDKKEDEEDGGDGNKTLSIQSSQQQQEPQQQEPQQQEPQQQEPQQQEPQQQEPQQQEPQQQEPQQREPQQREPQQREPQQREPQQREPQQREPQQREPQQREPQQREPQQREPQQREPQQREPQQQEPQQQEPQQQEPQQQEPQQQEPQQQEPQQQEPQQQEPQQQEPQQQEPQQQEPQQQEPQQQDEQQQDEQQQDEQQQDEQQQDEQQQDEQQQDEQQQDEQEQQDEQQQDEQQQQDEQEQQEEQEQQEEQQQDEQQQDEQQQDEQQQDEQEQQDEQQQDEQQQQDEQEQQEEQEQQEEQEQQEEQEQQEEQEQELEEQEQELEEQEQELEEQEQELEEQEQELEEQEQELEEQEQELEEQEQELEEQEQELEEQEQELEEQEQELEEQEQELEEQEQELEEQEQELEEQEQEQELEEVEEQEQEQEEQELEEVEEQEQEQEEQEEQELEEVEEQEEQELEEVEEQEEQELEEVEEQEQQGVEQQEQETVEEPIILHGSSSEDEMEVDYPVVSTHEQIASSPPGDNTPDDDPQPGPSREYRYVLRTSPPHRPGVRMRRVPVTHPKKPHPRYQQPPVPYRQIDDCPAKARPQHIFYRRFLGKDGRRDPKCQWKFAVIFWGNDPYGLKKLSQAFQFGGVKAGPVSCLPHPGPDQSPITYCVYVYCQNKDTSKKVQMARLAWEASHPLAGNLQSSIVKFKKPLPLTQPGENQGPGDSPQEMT
ALR inh: inhibitors of human ALR sulfhydryl oxidase, primary screen, biochemical, H2O2 detection, HRP-luminol luminescence, single point; 3.8% of 290,000 active; purified ALR, DTT oxidation; inhibition, % (concentration not given with the values); FAD-linked sulfhydryl oxidase ALR (Homo sapiens), P55789;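 active = mean and each replicate at 75% or more; inconclusive = only one of the two met; inactive = neither met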;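 note: stock transfer was 7.5 nL into about 7.5 µL; 0% = neutral wells and 100% = wells with inactivated enzyme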
Vif TR-FRET: inhibitors of Vif binding to APOBEC3G peptide, primary screen, biochemical, TR-FRET, GST-Vif 1-94, biotin-A3G peptide, dose response retest (AID 1117319); TR-FRET GST-Vif / biotin-A3G peptide binding; higher % means a stronger effect; test concentration not given here; strong numbers were not always called active; inhibition, %, or IC50 in µM where a hit was titrated; 0.57% of 260,000 active; Virion infectivity factor (Human immunodeficiency virus type 1 group M subtype B (isolate …;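 active = above the screen mean plus three standard deviations and confirmed in dose response; inconclusive = results disagree or hit not tested in dose response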;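 note: Vif residues 1-94 fused to GST binding biotinylated APOBEC3G peptide 110-148; 0% = full assay without inhibitor and 100% = GST in place of GST-Vif; retest series ran down from 100 µM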
Active calls of the source: *; ? = inconclusive; · = not tested or not shown; & = joins results of further samples.

Results follow in this order: RanGTP-Impb inh	Calb FLC	LANA-H2A inh	Vif TR-FRET	B2AR ag	HNF4A DNA FP	ALR inh
COC(=O)c1sccc1NC(=O)Cc1ccc(OC)cc1
  4.0	-4	2.1	14%	13	-1.9	7
CCOC(=O)C1(CC2CC2)CCN(Cc2ccc(OC)cc2F)CC1
  0.5	-38	-2.2	·	10	-1.3	1
O=[N+]([O-])c1ccc(CSc2nnc(SCc3ccccc3)s2)cc1
  1.0	0	4.5	·	-6	3.6	-1
CCc1nnc(NC(=O)CCN(c2ccc(C)cc2)S(=O)(=O)c2ccccc2)s1
  4.2	-1	2.7	·	4	0.0	-25
CC(C)C1C2=C(CC(C)(C)CC2=O)ON1c1ccccc1 (centres undefined)
  26*	-5	-1.4	-4%	-4	-0.7	1
CCCc1c(C(=O)N/N=C/C(C)=C/c2ccco2)nnn1-c1nonc1N
  -0.3	0	-1.5	·	-14	6.9	-14
Cc1cccc(-n2nc3c(c2NC(=O)c2ccco2)CSC3)c1C
  -2.4	1	1.3	23%	2	-20	53
CC(=O)c1ccccc1NC(=O)COC(=O)c1ccccc1NC(=O)c1ccccc1
  ·	·	-1.4	·	8	-1.1	3
Cc1ccc2[nH]c(O)c(N=Nc3ccccc3C)c2c1
  -5.9	3	3.7	7%	4	7.4	·
CCOC(=O)c1sc(N)c(C#N)c1CSc1nc2ccc(C)cc2[nH]1
  -0.7	-10	-6.3	25%	9	4.9	91*
CCc1ccc(NC(=O)COC(=O)CCC2CCCC2)cc1
  ·	·	3.1	-12%	7	-1.1	-2
C[C@@H](C(=O)Nc1cccc(S(=O)(=O)N2CCOCC2)c1)N1C(=O)C2CC=CCC2C1=O (some centres undefined)
  6.2	-6	1.6	20%	0	-0.1	-3
COc1ccc(OC)c(NC(=O)CCNS(=O)(=O)c2ccc3c(c2)c(=O)n(C)c(=O)n3C)c1
  -1.2	5	8.6	4%	-2	-0.4	-40
CCCN(CCC)C1Sc2ccc(C(=O)OC)cc2NC1=O (centres undefined)
  -1.9	-25	-0.8	-1%	9	4.1	-4
CCOC(=O)C1=C(C)N(C)C(C)=C(C(=O)OCC)C1c1ccncc1
  1.8	0	-3.5	4%	-1	1.2	0
NN=C1c2ccccc2C(=O)C1C(=O)C(c1ccccc1)c1ccccc1 (centres undefined)
  ·	·	·	0%	-169	106	·
O=C(C1CCN(S(=O)(=O)c2ccc(F)cc2)CC1)N1CCCC(C(F)(F)F)C1 (centres undefined)
  -1.3	-2	6.8	-2%	-6	1.1	-3
N#Cc1cc(-c2ccccc2)nc(N2CCNCC2)n1
  -2.3	-18	-1.3	-7%	-6	4.8	4
COc1ccccc1N(C)S(=O)(=O)c1ccc(C(=O)NCCc2ccc(F)cc2)cc1
  -0.3	4	-2.1	2%	-5	-1.1	-1
Cc1ccc(NC(=O)c2cc(-c3ccccc3O)n[nH]2)cc1Cl
  3.8	-2	-2.6	3%	3	-1.0	-21
Cn1c(SCC(=O)NC2CC2)nnc1-c1ccccc1
  -2.3	-1	1.5	·	0	-1.6	-7
CCOC(=O)c1sc(Nc2nc3ccc(OC)cc3s2)cc1C
  -0.7	-26	-0.7	22%	20	-0.1	1
Cc1cc(Cl)ccc1OCC(=O)NNC(=O)C1CCN(c2ncnc3sc(C)c(C)c23)CC1
  ·	·	-5.1	-9%	9	-0.8	·
CCCCCOC(=O)C1=C(C)NC(=O)NC1c1ccccc1OCC (centres undefined)
  3.0	7	2.2	-3%	-8	-2.3	-11
O=C(O)/C=C\C(=O)NC1CCCCC1
  ?	6	9.1	-2%	-1	0.7	-4
COc1cccc(CNc2ncnc3cc(Cl)ccc23)c1
  1.3	0	·	-3%	-9	1.0	·
CCc1ccc(CN(C)CCc2ccccn2)cc1
  -1.9	3	4.6	2%	3	-1.4	2
OC(COc1c(Br)cc(Br)cc1Br)CN1CCOCC1 (centres undefined)
  1.3	?	·	-1%	-14	-0.5	·
CCCOC(=O)c1[nH]c2c(c1C)C(=O)CC(c1cc(OC)c(OC)c(OC)c1)C2 (centres undefined)
  3.9	14	-0.2	9%&-6%	-1	-2.3	-43
COc1ccc(N(CC(=O)NC2CCCC2)C(=O)Cn2nnc(-c3ccc(F)cc3)n2)cc1
  8.6	-1	2.9	·	-1	0.7	-3
CN(C)C(=O)CCc1ccc2c3c([nH]c2c1)[C@]1(C)[C@@H](C(=O)N2CCOCC2)C[C@H](CC(=O)NC(C)(C)C)C(=O)N1CC3
  ·	·	·	-1%	-1	-1.5	·
Cc1c[nH]c2cccc(OCC(CNC(C)(C)C)OC(=O)c3ccccc3)c12 (centres undefined)
  0.1	-4	1.1	-2%	34	6.0	81*
O=C(Nc1ccc2nn(-c3ccc(F)cc3)nc2c1)c1cccnc1
  3.3	5	-4.4	4%	10	3.5	-14
CN(C)NC1=CC(=[N+]2CCCC2)CC(C)(C)C1
  ?	-2	-8.1	-2%	3	0.5	26
CC1CCCC(NC(=O)CSc2ncccc2C(=O)O)C1C (centres undefined)
  -6.8	4	-3.5	9%	2	-1.7	-2
O=C(CCN1CCC(c2ccccc2)C1)c1ccccc1 (centres undefined)
  -1.9	-8	2.4	-2%	4	3.4	10
CCCN(CC1COc2ccccc2O1)C(=S)Nc1ccc(C)cc1 (centres undefined)
  6.6	-4	-4.0	·	-5	3.5	0
O=C(CN(Cc1ccccc1)S(=O)(=O)c1ccc(Br)cc1)NCc1ccco1
  5.8	4	3.3	6%	-7	3.8	1
Cc1ccc(S(=O)(=O)Nc2cccc(-c3ccc(N4CCCCCC4)nn3)c2)cc1C
  6.7	4	-6.7	1%	5	-2.5	-3
COC(=O)C1=C(C)N(c2ccccc2)/C(=C/c2cccs2)C1=O
  -2.0	-19	2.2	3%	-19	1.6	3
COc1ccc(-c2noc(CCC(=O)NC3CCCCC3)n2)cc1
  2.2	1	2.7	-2%	-2	0.9	4
COc1cc(C(C[N+](=O)[O-])c2c(C)cc3ccccn23)ccc1O (centres undefined)
  2.1	8	0.6	·	12	4.2	24
Cc1ccc(N=C2N=C(N)c3ccccc32)cc1C
  1.0	3	1.0	-3%	10	-1.0	28
O=C(Cn1nnc(-c2ccc3c(c2)OCO3)n1)N1CCOCC1
  -1.0	-17	4.9	-3%	-7	-3.0	·
Cn1ccc(CC(=O)N2CCC(N3CCC(C(=O)N4CCCC4)CC3)CC2)c1
  -3.1	-16	-2.3	1%	1	12	·
Nc1c(Cl)c(Cl)nc(C(=O)OCC(=O)N2CCCC2=O)c1Cl
  -6.5	-2	1.9	-120%	-2	-4.6	-2
Cc1ccc(NC(=S)Nc2ccc(F)cc2)cc1C
  -3.3	-14	-3.7	·	-4	2.7	-4
COc1ccc(CCNC(=O)C2CCCN2C(=O)Nc2cccc(C(C)=O)c2)cc1OC (centres undefined)
  -0.4	·	-2.8	0%	1	-2.7	-4
Cc1ccc(CCN=c2c([N+](=O)[O-])nn(-c3ccccc3)n2O)cc1
  0.9	35	0.7	-3%	0	1.9	·
Brc1ccc(-c2nn3c(-c4ccco4)nnc3s2)o1
  1.7	4	3.5	1%	13	-21	3

The listing continues:
Results follow in this order: RanGTP-Impb inh	Calb FLC	LANA-H2A inh	Vif TR-FRET	B2AR ag	HNF4A DNA FP	ALR inh
Cc1nc(-c2cccc(NC(=O)c3ccc(-n4nccc4C)cc3)c2)cs1
  ·	·	0.9	·	19	3.1	-32
COc1cc2c(cc1OC)C(c1cc(Br)c(OC)c(OC)c1)CC(=O)N2 (centres undefined)
  -5.4	5	-2.1	·	-1	1.7	-14
CC(C)CC1(C2CCCC2)NC(=O)NC1=O (centres undefined)
  ·	·	·	1%	-5	-1.5	·
COc1cccc(CCN2CCC(CNS(=O)(=O)c3cc(-c4cc(C)no4)ccc3OC)CC2)c1
  0.9	14	0.5	·	4	-1.4	-2
O=C(COC(=O)/C=C/c1cccs1)Nc1cccc(S(=O)(=O)N2CCCC2)c1
  -2.6	2	-2.0	-1%	-4	0.1	-10
Cc1nc(SCC(=O)NCc2ccccc2)c2c(=O)n(C)c(=O)n(C)c2n1
  1.1	-6	-1.1	0%	-9	-1.7	-2
CCOC(=O)C1(CC2CC2)CCN(C(=O)c2cc(OC)nc3ccccc23)CC1
  -0.3	23	0.8	·	6	-1.4	-3
Cc1ccnc(NC(=O)C2CCN(S(=O)(=O)c3cccc(C(F)(F)F)c3)CC2)c1
  2.8	-1	3.8	·	-5	1.0	-4
C=CCn1c(SCC(=O)NC)nnc1C12CC3CC(CC(C3)C1)C2
  -0.4	-6	0.5	·	-4	4.2	1
CCc1ccc(NC(=O)COC(=O)c2nc3nc(C)cc(C)n3n2)cc1
  ·	·	11	-7%	-3	0.9	-2
CCOc1ccc(NC(=S)N2CCCCCC2)cc1
  -0.3	-2	0.9	·	-4	5.2	-19
CCCCN(C(=O)CCC(=O)Nc1cc(C)on1)C(C(=O)NC1CCCC1)c1ccc(OCC)cc1 (centres undefined)
  -6.6	-7	3.6	·	-6	-0.7	-5
Cc1ccc(OCC(=O)Nc2ccc([N+](=O)[O-])cn2)cc1C
  3.4	5	-1.6	1%	-1	0.4	-11
Cc1ccc(S(=O)(=O)Nc2ccccc2CNc2cccc(C)n2)cc1
  -3.4	15	-2.7	·	-3	0.4	-14
Fc1cccc(F)c1-n1c(CN2CCOCC2)csc1=S
  6.5	-2	1.0	-5%	2	2.0	-3
O=C(Cn1nnc(-c2ccc3c(c2)OCO3)n1)Nc1ccccc1C(=O)O
  -1.5	-1	1.9	·	2	-2.7	-17
Cc1nn(Cc2ccccc2)c(Cl)c1C(=O)NCCc1ccccc1
  4.8	-21	-1.5	18%	8	3.3	-11
CCCC(=O)Nc1ccccc1NC(=O)c1ccc2c(c1)OCO2
  4.4	24	0.0	·	-3	2.5	-5
OCCC1CN(Cc2cccc3nccnc23)CCN1Cc1ccc(F)cc1 (centres undefined)
  -4.8	-8	-12	-6%	-1	-4.8	·
Cc1ccc(NC(=O)c2cc(NC(=O)/C=C\C(=O)O)ccc2N2CCCCC2)cc1
  1.4	19	-1.1	-3%	-10	-4.1	99*

Continued; the last two above are carried over.
Results follow in this order: RanGTP-Impb inh	Calb FLC	LANA-H2A inh	Vif TR-FRET	B2AR ag	HNF4A DNA FP	ALR inh
OCCC1CN(Cc2cccc3nccnc23)CCN1Cc1ccc(F)cc1 (centres undefined)
  -4.8	-8	-12	-6%	-1	-4.8	·
Cc1ccc(NC(=O)c2cc(NC(=O)/C=C\C(=O)O)ccc2N2CCCCC2)cc1
  1.4	19	-1.1	-3%	-10	-4.1	99*
O=C(c1ccco1)N1CCN(C(=O)C2CC(c3ccc(Cl)cc3)=NO2)CC1 (centres undefined)
  0.4	4	5.9	?	-4	2.0	-5
O=C(COC(=O)CNS(=O)(=O)c1cccc(Br)c1)Nc1ccccc1Sc1ccccc1
  ?	-2	2.7	23%	1	3.1	0
COc1ccc(CCNC(=O)CSc2nnc(CNC(=O)c3cccs3)o2)cc1OC
  ?	6	3.3	22%	-3	-3.1	12
CCc1nc2nc(C)c(NS(=O)(=O)c3ccc(CC(C)C)cc3)c(=O)n2[nH]1
  ?	-4	6.6	·	13	-1.5	12
CCSCc1nnc(SCC(=O)Nc2ccc(F)cc2)n1CC
  0.3	-2	3.6	·	-3	3.0	7
